Screening results as filed in PubChem.
D2 ag: human D2 receptor agonism in beta-arrestin assay. P14416. activation, % (no concentration beside the values). 360,000 compounds, 0.084% hits. DiscoveRx PathHunter D2 beta-arrestin, luminescence, 90 min; 100% = 57 uM dopamine signal; in the data active = activation above about 40%; inconclusive = about 15% to 40%; inactive = below about 15%; also: compound concentration not given in the record; the text of the record calls up to 30% inactive
Target sequence (P14416 whole entry, looked up): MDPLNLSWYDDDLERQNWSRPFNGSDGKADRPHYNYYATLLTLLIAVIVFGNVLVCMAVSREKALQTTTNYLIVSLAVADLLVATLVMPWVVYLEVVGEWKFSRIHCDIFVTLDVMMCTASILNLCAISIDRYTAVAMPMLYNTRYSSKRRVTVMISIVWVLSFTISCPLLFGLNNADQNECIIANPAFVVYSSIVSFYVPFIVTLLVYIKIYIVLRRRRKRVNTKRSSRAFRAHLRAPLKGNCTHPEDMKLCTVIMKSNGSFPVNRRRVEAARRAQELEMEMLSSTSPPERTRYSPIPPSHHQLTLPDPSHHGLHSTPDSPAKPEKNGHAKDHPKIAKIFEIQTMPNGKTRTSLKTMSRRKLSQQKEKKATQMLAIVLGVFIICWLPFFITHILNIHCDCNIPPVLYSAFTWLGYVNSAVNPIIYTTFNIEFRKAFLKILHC
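Agonist mode: compounds alone added to overnight-plated D2 PathHunter cells for 90 min at 37 C, with 57 uM final dopamine (EC100) defining full response. Beta-arrestin recruitment detected by chemiluminescent reagent, read after 1 h at ambient temperature.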
gsp antagonist: gsp mutant antagonism. gsp-mutant cells, cAMP HTRF, 30 min; control for the full effect not named in the record. Potency, µM (top dose mostly 76.9 µM), for the others: at the top dose activity change, negative = inhibition, actives largely listed as inhibitors. 340,000 compounds, 0.4% hits. AID 624288; active = falling curve of any shape with a large fitted effect; inconclusive = falling curve, mostly with a smaller effect; inactive = flat or rising curve; cell line not stated here;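 also: intracellular cAMP measured with PDE inhibitor Ro 20-1724 present during compound exposure; potency is read from the fitted curve at half-maximal effect; % is scaled to controls: 0 for no effect and ±100 for the full control effect; nearly all actives have a fitted effect of over 65% in size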
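HTRF cAMP measurement after 30 min RT detection following 30 min, 37C compound treatment alongside […] (added as 300 uM solution) in G418-selected cells seeded at 2000/well and grown 16–24 h.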
Sfp PPTase inh: blocks B. subtilis Sfp PPTase activity. Q9F4F7. Biochemical Sfp PPTase activity, qHTS. Potency, µM, inactives show max response, negative = inhibition, most hits filed as inhibitors. 310,000 compounds, 3.5% hits. AID 1490; active = well fitted inhibition curve with a large enough effect; inconclusive = small, poorly fitted or top-dose-only effect, or another doubt; inactive = no such curve, though single readings can be large or run the other way;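 also: the enzyme is Sfp with the accession as filed and its product quenches rhodamine fluorescence; potency is read from the fitted curve at half-maximal effect; 0% = enzyme reaction without inhibitor and -100% = no enzyme wells; top concentration of the series not given in the record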
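Compounds were incubated with enzyme (final 15 nM) for 15 min at room temperature before substrate addition started the reaction. Fluorescence at 525 nm excitation, 598 nm emission was recorded immediately and after 30 minutes.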
gsp ag: gsp mutant agonism; gsp mutant cells, cAMP HTRF, 30 min; control for the full effect not named in the record; Potency, µM (titrated, usually from 76.9 µM), without a hit: at the top dose activation (cAMP increase), usual class: activators; 340,000 compounds, 0.13% hits; active = well fitted activation curve with a large enough effect; inconclusive = small, poorly fitted or top-dose-only effect, or another doubt; inactive = no such curve, though single readings can be large or run the other way; cell line not stated here;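 also: phosphodiesterase inhibitor Ro 20-1724 added with compounds to block cAMP breakdown; potency is read from the fitted curve at half-maximal effect; nearly all actives have a fitted effect of over 60% in size; about a fifth of the inactives were tested at one dose only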
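Cells in DMEM/10% FBS with G418 were pretreated with compounds in DMSO plus […] (300 uM stock) for 30 min at 37C. cAMP was measured by HTRF (cAMP-d2 plus anti-cAMP antibody-K) after 30 min at room temperature.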
Menin-MLL FL inh: inhibitors of human menin-MLL interaction, wild-type MLL peptide; FP activity change, % at 61.4 µM; 290,000 tested, under 10 active; AID 1766; Fluorescence polarization, fluorescein-MLL peptide displacement from menin; inconclusive = falling polarisation curve, or a change in total fluorescence; inactive = total fluorescence flat and polarisation flat or rising; no compound was filed as active; the % refers to the polarisation; negative = inhibition;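 also: % of control where 0% means no effect; inhibitors lower the polarisation; unlabelled MLL peptide was the positive control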
ClpP mod: qHTS Assay for Activators of ClpP. ATP-dependent Clp protease proteolytic subunit (Bacillus subtilis (strain 168)), P80244. purified B. subtilis ClpP, FRET peptide cleavage, 20 min. Potency, µM (titrated, usually from 57.5 µM), for the others: top-dose activity change, negative = active. 340,000 compounds, 1.9% hits; active = well fitted falling curve with a large enough effect; inconclusive = small, poorly fitted or top-dose-only effect; inactive = no such curve, though single readings can be large or run the other way; also: potency is read from the fitted curve at half-maximal effect; the source files actives as falling curves though it sought activators and does not explain the sign; nearly all actives have a fitted effect of over 65% in size; many hits overshoot -100%
Target sequence (P80244 whole entry, looked up): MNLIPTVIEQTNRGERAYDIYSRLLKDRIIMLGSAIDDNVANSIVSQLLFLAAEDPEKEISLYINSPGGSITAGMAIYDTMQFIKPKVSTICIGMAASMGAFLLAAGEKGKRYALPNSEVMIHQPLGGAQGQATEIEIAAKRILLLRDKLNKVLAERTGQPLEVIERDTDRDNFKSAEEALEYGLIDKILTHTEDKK
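Purified B. subtilis ClpP, 10 microg/mL final in Tris/HCl pH8 with KCl, BSA, glycerol and Tween-20, cleaved an Abz/nitrotyrosine-quenched decapeptide. Fluorescence (ex 320, em 430) was read at 0 and 20 min at room temperature. Delta was normalized to 5.8 microM ADEP and DMSO/no-enzyme controls.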
PINK1 expr mod: modulators of PINK1 expression | PINK1 immunofluorescence, high-content cytometry, 24 h | Potency, µM (top dose mostly 76.6 µM), without a hit: at the highest dose activation (PINK1 increase), hits mostly activators | 410,000 compounds, 0.2% hits; active = well fitted activation curve with a large enough effect; inconclusive = small, poorly fitted or top-dose-only effect; inactive = flat fitted curve, though single readings scatter; cell line not stated here;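 also: potency is read from the fitted curve at half-maximal effect; % of control where 0% means no effect; nearly all actives have a fitted effect of over 65% in size; a mitochondrial uncoupler was the plate control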
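PINK1 protein level read as immunofluorescence by microplate cytometer in a fixed, stained stable cell line after 24 h exposure to five compound concentrations, with CCCP as control.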
Active calls of the source: *; ? = inconclusive; . = not tested or not shown; & = joins results of further samples; ! = repeats disagree; [ ] = dose if it differs, or a comment.

SMILES	D2 ag	gsp antagonist	Sfp PPTase inh	gsp ag	Menin-MLL FL inh	ClpP mod	PINK1 expr mod
Cc1ccc(NC(=O)c2ccccc2NC(=O)CCC(=O)O)cc1	-3.1	1%	1%	-2%	8.9	-6.9%	-0.2%
CCn1c(=N)n(CC(=O)OC)c2ccccc21	-3.4	9%	12%	-17%	1.3	0.2%	-1.5%
Cc1ccc(NC(=O)c2ncn(CC(=O)N[C@H](C)c3cccc4ccccc34)n2)cc1C	0.1	-19%	.	.	.	25%	6.5%
Cc1ccccc1-c1ccc(CN2C(C(C)C)C(=O)N(Cc3cn(CCC4OCCO4)nn3)CCS2(=O)=O)cc1 (stereo unspecified)	-1.0	.	.	.	.	2.5%	1.6%
CCN(CC(=O)Nc1cc(Cl)ccc1C)CC(=O)NC1CC1	-1.7	.	.	-17%	.	2.1%	0.2%
CC(C)Oc1cccc(C(=O)NC2=NCCS2)c1	1.9	9%	?	-6%[15.4 µM]	5.0	-3.5%	1.7%
Cc1ccccc1NC(=S)N1CCC(C(=O)c2ccc(F)cc2)CC1	1.9	-1%	13%	6%	3.1	-1.9%	-2.7%[38.3 µM]
COc1ccc(N(CC(=O)NC2CCCCC2)C(=O)CCCC(=O)Nc2ccccn2)c(OC)c1	-3.3	3%	7%	-14%	-2.1	-0.9%	-1.5%
Cc1cc(NC(=O)CSc2ncc(C(F)(F)F)cc2Cl)no1	-2.7	4%	.	?	.	.	-0.3%
N=C(N=C(N)N)N1CCc2ccccc21	-4.8	-7%	9%	9%[15.4 µM]	17	.	0.5%
CC(O)(CS(=O)(=O)Cc1ccccc1)c1ccccc1Cl (stereo unspecified)	-1.8	13%	-1%	?	-2.5	-1.1%	0.3%
CCc1cc(CNC(=O)CC2C(=O)NCCN2Cc2cccc(OC)c2)on1 (stereo unspecified)	-2.7	7%	-1%	-29%	-12	-18%	0.5%
CCc1nnc(NC(=O)C2CC(=O)N(CCc3ccccc3)C2)s1 (stereo unspecified)	-1.1	4%	2%	?	-2.0	-2.8%	-1.7%
C(=N\C(/N=C/c1ccco1)c1ccco1)/c1ccco1	-1.9	1%	?	0%	3.6	16µM*	-0.4%
Cc1ccc(C(=O)Nc2ccc(NC(=O)c3cccs3)cc2)c(C)c1	1.7	.	-29%	16%[15.4 µM]	.	.	0.0%
CCCn1c(=O)[nH]c(=O)c2c1nc(-c1cccs1)n2CCOC	0.3	-3%	17%	22%[15.4 µM]	0.3	.	1.8%
COc1cc(C(=O)Nc2ccccc2NC(=O)c2cc(OC)c(OC)c(OC)c2)cc(OC)c1OC	-0.9	8%	-19%	-6%	2.1	-3.4%	1.0%
CC1CCN(S(=O)(=O)c2ccc(S(=O)(=O)NCC(=O)C(C)(C)C)cc2)CC1	-2.7	-1%	12%	8%	1.2	-0.3%	0.8%[38.3 µM]
O=c1[nH]c2cc3c(cc2cc1CN(CCO)S(=O)(=O)c1ccccc1Cl)OCCO3	0.0	-15%	-4%	-5%	0.4	28µM*	1.2%[38.3 µM]
O=C(O)c1cccnc1C(=O)O	-3.1	8%	89µM*!	.	7.7&-0.2&-13	-1.6%	0.1%
Cc1cc(NC(=O)CN2C(=O)CC(c3ccco3)Sc3ccccc32)no1 (stereo unspecified)	-6.5	-23%	2.5µM*	0%	5.8	-2.9%	-0.6%
CCC(CC)=C(C#N)C(=O)NC1CCCCC1	-1.8	4%	6%	-26%	3.1	1.2%	1.5%
COc1cc(C=C(c2nc3ccccc3s2)c2nc3ccccc3s2)cc(OC)c1O	-7.8	-10%	-12%	25%	?	-1.5%	-0.6%
CCc1ccc(N2C(=O)c3sc4nnc(-c5ccccc5)c(=O)n4c3C2=O)cc1	1.4	-15%	?	?	6.2	-1.2%	-3.9%
COc1cccc(CNC(=O)C2CCCN2S(=O)(=O)c2ccc3c(c2)C(C)(C)C(=O)N3C)c1 (stereo unspecified)	3.2	-2%	9%	-7%	3.0	2.1%	-0.7%
Other structures follow.
SMILES	D2 ag	gsp antagonist	Sfp PPTase inh	gsp ag	Menin-MLL FL inh	ClpP mod	PINK1 expr mod
Cc1nc2c3ccccc3n(Cc3ccccc3F)c2s1	-0.8	-6%	-21%	-1%	2.0	0.3%	12%
CCCCC1CCC(C(=O)Nc2ccccc2)CC1 (stereo unspecified)	0.4	11%	11%	13%	-0.6	-3.2%	-2.4%[38.3 µM]
Cc1ccc(S(=O)(=O)N2CCOCC2)cc1C(=O)NC(=S)N1CC(C)OC(C)C1 (stereo unspecified)	-6.8	-4%	-23%	?	2.0	-1.3%	1.4%
CC(=O)O[C@H]1[C@H](C)OC=C[C@@H]1OC(C)=O	2.7	20%	19%	?	-0.6	1.8%	0.5%
O=C(O)C1CC=CCC1C(=O)NNc1ccccc1 (stereo unspecified)	2.7	-12%	17%	1%[15.4 µM]	-6.0	.	-0.5%
CN1c2ccccc2-c2nc3ccccc3n2C1c1ccco1 (stereo unspecified)	-0.5	-16%	-20%	-40%	3.4	?	-1.6%
Cc1ccc(NC(=O)CN2C(=O)c3ccccc3C2=O)nc1	-6.7	-6%	19%	2%[15.4 µM]	-0.1	.	0.5%
CN(C)CCNc1ncnc2sc(-c3ccccc3)cc12	-1.0	9%	-1%	-15%[15.4 µM]	-1.4	0.6%	-1.4%
CCCOc1ccc(F)cc1-c1cc(C(=O)NC2CCCCC2)[nH]n1	4.8	.	.	.	.	-4.3%	1.2%
Cn1c(SCC(=O)NCC2COc3ccccc3O2)nnc1C(F)(F)F (stereo unspecified)	-0.8	5%	.	?	.	-0.7%	-1.0%
O=C(O)/C=C1\CCCc2ccccc2C1O (stereo unspecified)	-7.7	-3%	25%	.	.	1.4%	2.3%
O=C(/C=C/c1cccc(Cl)c1)NCc1cccs1	-2.5	-23%	-12%	-7%	1.8	-0.1%	2.2%
Cc1ccc(-c2[nH]c(-c3ccccc3)nc2SCC(=O)NCC2CCCO2)cc1 (stereo unspecified)	-0.2	-28%	?	-9%	1.2	28µM*!	-2.4%&0.1%
Cc1ccc(Nc2cc(-n3nc(C)cc3C)ncn2)cc1	-1.7	15%	18%	20%	3.3	-3.1%	4.9%
O=C(NNC(=O)c1cccs1)c1ccc([N+](=O)[O-])cc1	-3.2	-1%	-10%	8%[15.4 µM]	12	.	0.1%
CCO[C@@H]1c2c(ccc3ccc(=O)oc23)OC(C)(C)[C@H]1O	-1.0	10%	.	.	.	4.3%	1.1%
N=C1SC(c2ccccc2)C(=O)N1c1ncc(Cc2ccccc2Cl)s1 (stereo unspecified)	0.0	2%	-2%	-2%	5.6	-3.6%	26%
c1ccc2c(c1)nc1n2CC2CON(C3CCCCC3)C12 (stereo unspecified)	-2.5	8%	-4%	10%	3.1	-5.1%	0.8%
CC(N)c1csc(Nc2nccc(C(F)(F)F)n2)n1 (stereo unspecified)	3.5	.	.	.	.	1.0%	-0.3%
CC1(C)C2CCC1(C)C(NC(=O)CCN1CCCCC1)C2 (stereo unspecified)	-3.4	6%	12%	-29%	2.7	-0.5%	12%[38.3 µM]
Cc1ccc(NC(=O)c2ncn(CC(=O)N[C@H](CO)Cc3c[nH]c4ccccc34)n2)cc1C	-1.6	1%	.	.	.	-1.5%	-0.3%
O=C(/C=C/c1cn(-c2ccccc2)nc1-c1cccs1)NCCN1CCOCC1	2.0	-13%	-6%	?	-0.8	3.5%	-0.2%
O=C(NCCc1c[nH]c2ccccc12)C1CCC(=O)N(CCc2cccc(F)c2)C1 (stereo unspecified)	1.9	-9%	10%	-29%	1.0	.	-0.2%
O=C(Nc1ccc2c(c1)OCCO2)C(C1CC1)N1CCN(C/C=C/c2ccccc2)CC1 (stereo unspecified)	-2.6	.	.	.	.	1.6%	-0.6%
COc1ccc(Cl)cc1NC(=O)N1CCN(S(C)(=O)=O)CC1	2.5	12%	0%	1%	-0.6	-1.9%	-2.8%
Further results follow:
SMILES	D2 ag	gsp antagonist	Sfp PPTase inh	gsp ag	Menin-MLL FL inh	ClpP mod	PINK1 expr mod
COC(=O)C(CC(=O)CNC(=O)c1ccccc1)NC(=O)c1ccccc1 (stereo unspecified)	0.6	-3%	.	-9%	.	.	6.9%
CC1(O)CC(c2ccc(Cl)cc2)=NN1C(=O)c1ccc(Cl)cc1 (stereo unspecified)	0.2	-2%	9%	-5%	5.8	-1.2%	?
CCN(CC(=O)NCc1cccs1)C(=O)c1cccc(S(=O)(=O)Nc2ccc(C)cc2)c1	-0.8	-12%	.	3%[15.4 µM]	.	-0.3%	-1.0%
COc1cccc(NC(=O)C(Cc2ccccc2)n2cccc2)c1 (stereo unspecified)	-0.1	-8%	19%	1%[15.4 µM]	1.4	.	5.5%
CCOc1ccc(OCCOCCn2ccnc2)cc1	-1.1	-4%	-8%	-5%	0.2	-1.5%	0.8%
CC(C)CN1CCC(=O)N([C@H](CN=[N+]=[N-])Cc2ccccc2)CC1	-2.2	8%	20%	.	0.5	-0.7%&-1.6%	1.0%
Cc1ccc(CN2CC(C(=O)NNC(=O)c3ccc(F)cc3)CC2=O)cc1 (stereo unspecified)	-5.5	4%	.	-14%	.	-0.4%	0.6%
O=C1CSC(=O)N1CCOCCN1C(=O)CSC1=O	-0.6	11%	6%	-47%[inhibitor]	2.1	-0.7%	-1.4%
COC(=O)COc1ccc(/C=C2/NC(=O)N(CC(=O)OC)C2=O)cc1	-1.8	-21%	14%	6%[15.4 µM]	0.8	-4.2%	-0.2%
Nc1nc(N2CCCCC2)c2ncn(C3OC(CO)C(O)C3O)c2n1 (stereo unspecified)	0.1	.	.	11%	.	-0.7%	0.1%
O=C(Nc1ccc2c(c1)OCCO2)c1ccccc1F	-2.0	0%	-11%	-27%	-1.5	-3.6%	2.3%
N=c1c(S(=O)(=O)c2ccccc2)cc2c(=O)n3ccccc3nc2n1CCCN1CCOCC1	1.3	4%	-26%	47%	-21	.	0.9%
CC(=O)Nc1ccc(NC(=O)CCn2c(=O)oc3ccccc32)cc1	-18	5%	19%	23%[15.4 µM]	2.1	-5.6%	0.8%
